VDR inh = vitamin D3 receptor (human) inhibition; VDR-SRC2-3 peptide fluorescence polarization, 2 h; Potency, µM, for inactives: max response, negative = inhibition, most hits filed as inhibitors; actives 0.93% (n = 400,000); AID 504847; active means well fitted inhibition curve with a large enough effect; inconclusive means small, poorly fitted or top-dose-only effect, or another doubt; inactive means no such curve, though single readings can be large or run the other way; further: series mostly up to about 120 µM
Target sequence (P11473 whole entry, looked up): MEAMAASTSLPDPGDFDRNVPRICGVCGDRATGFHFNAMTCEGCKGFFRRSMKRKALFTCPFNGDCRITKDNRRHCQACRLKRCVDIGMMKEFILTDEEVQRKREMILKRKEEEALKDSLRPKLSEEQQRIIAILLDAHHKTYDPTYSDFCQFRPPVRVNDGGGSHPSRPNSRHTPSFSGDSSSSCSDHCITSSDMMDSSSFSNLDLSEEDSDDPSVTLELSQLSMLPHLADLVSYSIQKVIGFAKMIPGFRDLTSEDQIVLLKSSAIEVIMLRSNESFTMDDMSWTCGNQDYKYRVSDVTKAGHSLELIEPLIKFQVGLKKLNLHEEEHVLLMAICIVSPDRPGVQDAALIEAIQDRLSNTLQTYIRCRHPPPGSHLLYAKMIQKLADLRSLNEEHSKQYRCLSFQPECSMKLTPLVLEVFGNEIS
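Fluorescence polarization assay of small-molecule disruption of VDR binding to coregulator peptide SRC2-3. Compounds and controls pin-transferred, then read after 2 h incubation at ambient room temperature.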
Active calls of the source: *; & = joins results of further samples; [ ] = another dose, or the depositor's remark. On the % scale 0 is the no-effect control and ±100 the full control effect; potency means the concentration at half of the fitted maximal effect. A portion of the library. The share of hits here may be higher or lower than overall.

Results for COCCOC(=O)C1=C(N)Oc2c(c(=O)oc3ccccc23)C1c1ccncc1 (stereo not drawn) ?
VDR inh: 5%

What do the screens show for `CN(C)CC/C=C1\c2ccccc2Sc2ccc(Cl)cc21`?
VDR inh: inconclusive

What do the screens show for `Cc1ccc(NC(=O)N(C)C)cc1Cl`?
VDR inh: 7%

What do the screens show for `CCOC(=O)c1c(NC(NC(=O)CF)C(Cl)(Cl)Cl)sc2c1CCCC2` (stereo not drawn)?
VDR inh: 45µM*

Results for c1ccc(C(c2ccccc2)c2cccnc2)cc1 ?
VDR inh: -2%

What do the screens show for `Cc1ccc2c(c1)C1CN(C)CCC1N2C(=O)c1cn(-c2ccccc2)nc1-c1ccccc1` (stereo not drawn)?
VDR inh: -4%

What do the screens show for `COC(=O)C1=C(c2ccc3ccccc3c2)C[C@@H]2CC[C@H]1N2C(=O)NCCCOC(C)C`?
VDR inh: -8%

What do the screens show for `Cn1cccc1/C=C1\C(=O)NC(=O)N(Cc2ccco2)C1=O`?
VDR inh: -29%

How did CC12CCC(=O)C=C1CCC1C2CCC2(C)C(O)(C(=O)CO)CCC12O (stereo not drawn) do in these assays?
VDR inh: 9%

How did CC(C)c1ccc(N=Nc2c(O)[nH]c(=O)[nH]c2=O)cc1 do in these assays?
VDR inh: 0%

What do the screens show for `C(#CCN1CCCCC1)COCc1ccccc1`?
VDR inh: -5%

How did O=C(Cc1ccccc1F)N1CCN(CC(=O)N2CCCC2)CC1 do in these assays?
VDR inh: 3%

What do the screens show for `COc1cc(C2SCC(=O)Nc3c2c(C)nn3-c2ccccc2)cc(OC)c1OC` (stereo not drawn)?
VDR inh: -5%

How did COC(=O)C1=C(c2ccc(F)cc2OCc2ccccc2)C[C@@H]2CC[C@H]1N2C(=O)NCc1cccc(OC)c1 do in these assays?
VDR inh: -10%

What do the screens show for `Cc1ccc2c(c1)C(c1ccccc1)NCC(=O)N2` (stereo not drawn)?
VDR inh: 6%

Results for CN1CCCN(c2ccc([N+](=O)[O-])nc2)CC1 ?
VDR inh: 14%

How did CC(=O)OC1CCC2(/C=N/O)C(=CCC3C4CCC(=O)C4(C)CCC32)C1 (stereo not drawn) do in these assays?
VDR inh: -10%

Results for COc1ccc(CCNCc2ccc(C)s2)cc1OC ?
VDR inh: -12%

What do the screens show for `Cc1nn(C)c(C)c1/C=C1/CC2C3CC=C4CC(O)CCC4(C)C3CCC2(C)C1=O` (stereo not drawn)?
VDR inh: -15%

How did O=C(Cc1ccccc1)OCC(=O)c1ccc(F)cc1 do in these assays?
VDR inh: -1%

How did CCCCCn1c(=O)c(C(=O)Nc2cnccn2)c(O)c2ccccc21 do in these assays?
VDR inh: 12%

What do the screens show for `O=C1NCN(c2ccccc2)C12CCN(CCCOc1ccc(F)cc1)CC2`?
VDR inh: -7%&3%&-20%

Results for CCCCn1c(O)c(C(=O)/C=C/c2ccc3c(c2)OCO3)c(=O)[nH]c1=O ?
VDR inh: inconclusive

Results for CCOC(=O)C(NC(=O)CCl)(Nc1ccc(C(O)(C(=O)OCC)C(F)(F)F)cc1)C(F)(F)F (stereo not drawn) ?
VDR inh: -9%

Results for Cc1ccccc1C1=NCC(=O)N(CC(=O)N2CCCCC2)c2sc(C)c(C)c21 ?
VDR inh: -4%

Results for CCOC(=O)C1(CCOc2ccccc2)CCN(Cc2ccc(C)s2)CC1 ?
VDR inh: -20%

Results for CCCCOc1ccc(CC2C(=O)N(C)C(=O)N(C)C2=O)cc1 ?
VDR inh: inconclusive

What do the screens show for `C/C(=N\N1CCN(C)CC1)c1c(O)[nH]c(=O)[nH]c1=O`?
VDR inh: -6%

Results for Cc1ccc(C(C)C)c(OCC(=O)N2CCN(CC(=O)N3CCOCC3)CC2)c1 ?
VDR inh: -23%

What do the screens show for `O=C(O)c1[nH]c(=O)[nH]c(=O)c1F`?
VDR inh: 8%

How did CC(C)(O)c1[se]c2ccccc2c1I do in these assays?
VDR inh: -16%

Results for CC(C)CN(CC(C)C)c1ccc(C=C2C(=O)NC(=S)NC2=O)cc1[N+](=O)[O-] ?
VDR inh: 35µM*

How did COc1ccc(OCC(=O)N2CCN(CCc3ccccn3)CC2)cc1 do in these assays?
VDR inh: 3%

What do the screens show for `CCOC(=O)c1c(N)n(CCCOC(=O)c2ccco2)c2nc3ccccc3nc12`?
VDR inh: -9%

Results for CCCOCCN(C(=O)CCl)c1c(CC)cccc1CC ?
VDR inh: 11%

What do the screens show for `Cc1nn(CCC#N)c2c1P(=S)(N1CCCC1)OC(c1ccc(F)cc1)=N2` (stereo not drawn)?
VDR inh: 25µM*

What do the screens show for `COc1ccccc1OCC(=O)Nc1ccc(Cl)cc1C(=O)c1ccccc1`?
VDR inh: 3%

How did Cc1nn(-c2ccccc2)c(Cl)c1C1C(C#N)=C(N)Oc2c1c(=O)oc1ccccc21 (stereo not drawn) do in these assays?
VDR inh: -8%

How did CCC1(c2ccc(-c3ccccc3)cc2)C(=O)NC(=O)NC1=O do in these assays?
VDR inh: -7%

Results for C[C@]12CCC3C(CC[C@H]4C[C@@H](O)CC[C@]34C)[C@H]1CC[C@H]2O (stereo partly drawn) ?
VDR inh: -10%

What do the screens show for `CCN(CC)C(=O)N[C@@H]1C=C2c3cccc4[nH]cc(c34)C[C@H]2N(C)C1`?
VDR inh: 40µM*

How did O=C(N/N=C/c1c(O)n(-c2ccccc2)c(=S)[nH]c1=O)c1ccccc1 do in these assays?
VDR inh: 9%

How did CCOC(=O)C(O)(c1ccc(NC(=O)c2ccco2)c(OC)c1)C(F)(F)F (stereo not drawn) do in these assays?
VDR inh: 10%

What do the screens show for `COC(=O)C1=C(c2ccc(C(C)=O)cc2)C[C@@H]2CC[C@H]1N2C(=O)NC1Cc2ccccc2C1`?
VDR inh: -14%

Results for COC1C(C)OC(OC2CC(C)(O)Cc3cc4c(c(O)c32)C(=O)c2c(O)cc3c(c2C4=O)OC2OC3(C)C(O)C(N(C)C)C2O)C(OC)C1(C)OC (stereo not drawn) ?
VDR inh: 3%

What do the screens show for `CCn1cc(C(=O)N2CCCCC2)c2ccccc21`?
VDR inh: -2%

How did Cc1ccccc1-n1nc(C)c2c1NC(=O)CSC2c1ccc(Cl)cc1 (stereo not drawn) do in these assays?
VDR inh: 10%

What do the screens show for `Cn1c(=O)c2c(nc(N/N=C/c3c(O)n(-c4ccccc4)c(=S)[nH]c3=O)n2C)n(C)c1=O`?
VDR inh: -12%

How did CN1C2CC(=O)CC1C(O)C2 (stereo not drawn) do in these assays?
VDR inh: 0%

Results for CCNC(=O)NC(=O)C(C)OC(=O)c1c(C)nn(Cc2ccccc2)c1Cl (stereo not drawn) ?
VDR inh: -2%

Results for CCCCC(CC)COCCCN=Cc1c(O)[nH]c(=S)[nH]c1=O (stereo not drawn) ?
VDR inh: -14%

Results for C[C@]12CCC3C(CCC4=C/C(=N/OCC(=O)NC(CCC(N)=O)C(=O)O)CC[C@@]43C)C1CCC2O (stereo partly drawn) ?
VDR inh: -28%

How did Cc1cc(/C=C2/C(=O)NC(=O)N(Cc3ccco3)C2=O)c(C)n1-c1ccccc1O do in these assays?
VDR inh: 32%[activator]

How did CN1CC[C@@]2(C)c3cc(O)ccc3N(C)C2O1 (stereo partly drawn) do in these assays?
VDR inh: -22%

Results for COc1cc2c(cc1OC)C13CCN4CC5=CCOC6CC(=O)N2C1C6C5CC43 (stereo not drawn) (tested in a mixture with another compound) ?
VDR inh: -1%

How did CC(=O)c1c(O)n(-c2cccc(Cl)c2)c(=O)[nH]c1=O (tested in a mixture with another compound) do in these assays?
VDR inh: 0%

How did CCN1C(=O)CC(c2cccnc2)=Nc2ccccc21 do in these assays?
VDR inh: -6%

What do the screens show for `CCN1CCN(c2cc(=O)n3ccccc3n2)CC1`?
VDR inh: -6%

What do the screens show for `COC(=O)C1=C(c2cc3ccccc3s2)C[C@@H]2CC[C@H]1N2C(=O)N1CCC(C)CC1`?
VDR inh: -8%

What do the screens show for `Cn1c(O)c(C(=Nc2ccccc2)SCc2ccc(Cl)cc2)c(=O)n(C)c1=O`?
VDR inh: inconclusive

How did CNC(=O)OCCc1nccn1C do in these assays?
VDR inh: 5%

What do the screens show for `CCCCCP(=O)(O)c1ccccc1`?
VDR inh: -2%

What do the screens show for `c1ccc(/N=C2\N=C(Nc3ccccn3)c3ccccc32)nc1`?
VDR inh: 32%[activator]

Results for COc1cc(C(c2c(O)c3ccccc3oc2=O)c2c(C)n(C)n(-c3ccccc3)c2=O)ccc1O (stereo not drawn) ?
VDR inh: inconclusive

What do the screens show for `O=c1c2ccccc2nc(-c2ccc(Cl)cc2Cl)n1-c1nccs1`?
VDR inh: -11%

Results for O=C1CC(=O)N(c2ccccc2F)C(=O)N1 ?
VDR inh: -24%

How did O=C(O)/C=C/CO do in these assays?
VDR inh: 4%&-11%

Results for CCCc1nnc(NC(=O)CCC(=O)N2CCN(CCOC(c3ccccc3)c3ccccc3)CC2)s1 ?
VDR inh: 9%

What do the screens show for `Cc1ccc(OP2(=O)Nc3cc(C)c(C)cc3S2)cc1` (stereo not drawn)?
VDR inh: 7.9µM*

Results for Cc1c(CC(=O)N2C[C@H]3C[C@@H](C2)c2cccc(=O)n2C3)c(=O)oc2cc(O)c(Cl)cc12 ?
VDR inh: -13%

What do the screens show for `Cc1ccc2cccc(OC(=O)N3CCCC3)c2n1`?
VDR inh: -5%

How did CCCCn1c(=O)c(C(=O)Nc2ccsc2C(=O)OC)c(O)c2ccccc21 do in these assays?
VDR inh: -6%

What do the screens show for `Cc1ccc(C2CC3CCC(C2)N3Cc2ccccc2F)cc1` (stereo not drawn)?
VDR inh: 18%

What do the screens show for `O=C1NC(=O)C(=Cc2ccccc2OCCOc2ccc([N+](=O)[O-])cc2)C(=O)N1`?
VDR inh: 45µM*

What do the screens show for `CCC(C)N1C(=O)NC(=O)C2(Cc3cc(C)ccc3N(C)C2)C1=O` (stereo not drawn)?
VDR inh: -22%

Results for CC(=NCCC1=CCCCC1)c1c(O)[nH]c(=O)[nH]c1=O ?
VDR inh: 12%

Results for COc1cccc(/C=C2\N=C(c3cncc(Br)c3)OC2=O)c1 ?
VDR inh: -10%

Results for COc1ccc2[nH]cc(CCNCc3cccnc3)c2c1 ?
VDR inh: -6%

Results for COc1ccc(C(=O)Nc2ccc(Cl)cc2C(=O)c2ccccc2)c(OC)c1 ?
VDR inh: -17%

How did CC(=O)Nc1ccccc1C(=O)OCC(=O)c1cccc2ccccc12 do in these assays?
VDR inh: -7%

What do the screens show for `COc1ccc(OC(=O)N2C/C(=C/c3ccccc3)C(=O)/C(=C\c3ccccc3)C2)cc1`?
VDR inh: inconclusive

How did CC(Cc1ccccc1)NC(=O)NC(C)Cc1ccccc1 (stereo not drawn) do in these assays?
VDR inh: 12%

What do the screens show for `CC1CC[C@@]2(OC1)OC1C(O)C3C4CC[C@H]5CC(O[C@@H]6O[C@@H](CO)[C@H](OC7OC(CO)C(O)C(OC8OCC(O)C(O)[C@H]8O)[C@@H]7O[C@@H]7OC(CO)[C@H](O)[C@@H](O[C@@H]8OC(CO)C(O)C(O)C8O)C7O)C(O)C6O)C(O)C[C@]5(C)C4CC[C@]3(C)C1C2C` (stereo partly drawn)?
VDR inh: 4%

What do the screens show for `O=C(Cc1ccccc1)OCC(=O)c1ccccc1`?
VDR inh: 12%

What do the screens show for `CN1C[C@H](C(=O)N[C@]2(C)O[C@@]3(O)[C@@H]4CCCN4C(=O)[C@H](Cc4ccccc4)N3C2=O)C[C@@H]2c3cccc4[nH]cc(c34)C[C@H]21`?
VDR inh: 1%&-2%

What do the screens show for `CCOc1ccccc1NC(=O)N1CCC2(CC1)OCCO2`?
VDR inh: 3%

How did CCOC(=O)C1(c2ccccc2)CCN(CCc2ccc(NC(=O)CCC(=O)O)cc2)CC1 do in these assays?
VDR inh: 13%

What do the screens show for `O=C(Nc1ccccc1)N(Cc1ccc2c(c1)OCO2)C1CCN(Cc2ccccc2)CC1`?
VDR inh: 11%

How did COc1ccc2c(c1O)-c1cc(O)cc3c1[C@@H](C2)N(C)CC3 do in these assays?
VDR inh: 3%

How did O=C(c1ccc2c(c1)OCO2)C1CCCN(Cc2c(F)cccc2Cl)C1 (stereo not drawn) do in these assays?
VDR inh: 14%

What do the screens show for `COc1ccc(C)cc1N(CC(=O)N1CCC(C)CC1)S(=O)(=O)c1ccc(C)cc1`?
VDR inh: inconclusive

What do the screens show for `c1ccc([Se]c2c(-c3ccccc3)[se]c3ccccc23)cc1`?
VDR inh: 63µM*

What do the screens show for `CCn1c(P(C)(=O)O)nc2ccccc21`?
VDR inh: inconclusive

In the list so far, these have an NH in an aromatic ring.
How did CC(C)c1ccc(N=Nc2c(O)[nH]c(=O)[nH]c2=O)cc1 do in these assays?
VDR inh: 0%

Results for CCCCn1c(O)c(C(=O)/C=C/c2ccc3c(c2)OCO3)c(=O)[nH]c1=O ?
VDR inh: inconclusive

What do the screens show for `C/C(=N\N1CCN(C)CC1)c1c(O)[nH]c(=O)[nH]c1=O`?
VDR inh: -6%

What do the screens show for `O=C(O)c1[nH]c(=O)[nH]c(=O)c1F`?
VDR inh: 8%

What do the screens show for `CCN(CC)C(=O)N[C@@H]1C=C2c3cccc4[nH]cc(c34)C[C@H]2N(C)C1`?
VDR inh: 40µM*

How did O=C(N/N=C/c1c(O)n(-c2ccccc2)c(=S)[nH]c1=O)c1ccccc1 do in these assays?
VDR inh: 9%

What do the screens show for `Cn1c(=O)c2c(nc(N/N=C/c3c(O)n(-c4ccccc4)c(=S)[nH]c3=O)n2C)n(C)c1=O`?
VDR inh: -12%

Results for CCCCC(CC)COCCCN=Cc1c(O)[nH]c(=S)[nH]c1=O (stereo not drawn) ?
VDR inh: -14%

How did CC(=O)c1c(O)n(-c2cccc(Cl)c2)c(=O)[nH]c1=O (tested in a mixture with another compound) do in these assays?
VDR inh: 0%

Results for CC(=NCCC1=CCCCC1)c1c(O)[nH]c(=O)[nH]c1=O ?
VDR inh: 12%

Results for COc1ccc2[nH]cc(CCNCc3cccnc3)c2c1 ?
VDR inh: -6%

What do the screens show for `CN1C[C@H](C(=O)N[C@]2(C)O[C@@]3(O)[C@@H]4CCCN4C(=O)[C@H](Cc4ccccc4)N3C2=O)C[C@@H]2c3cccc4[nH]cc(c34)C[C@H]21`?
VDR inh: 1%&-2%
